# GIRK2 activ = GIRK2 channel activation. AID 1259325. P48051. calls only for hits at 25 µM. HEK293-GIRK2 thallium flux, Thallos fluorescence. 0.05% of 63,000 active;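 active = among the strongest 0.2% of first-round signals and kept after retests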;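 note: first round at about 10 µM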
# Target sequence (P48051 whole entry, looked up): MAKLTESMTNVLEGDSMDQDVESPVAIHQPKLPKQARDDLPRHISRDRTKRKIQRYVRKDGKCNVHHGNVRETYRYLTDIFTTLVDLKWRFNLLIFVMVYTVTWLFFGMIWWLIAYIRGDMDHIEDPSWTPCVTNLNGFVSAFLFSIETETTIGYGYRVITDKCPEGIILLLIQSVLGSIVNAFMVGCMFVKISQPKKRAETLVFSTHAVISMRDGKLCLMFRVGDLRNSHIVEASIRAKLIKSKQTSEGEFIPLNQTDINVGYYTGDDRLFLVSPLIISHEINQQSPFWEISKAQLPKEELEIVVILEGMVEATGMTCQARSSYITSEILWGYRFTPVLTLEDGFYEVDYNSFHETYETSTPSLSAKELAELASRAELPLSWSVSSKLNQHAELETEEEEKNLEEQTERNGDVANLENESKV
# Calls only; i = inactive. Only part of the results is shown. The share of hits here may be higher or lower than overall.
SMILES,GIRK2 activ
NC1=C2C(=O)Oc3ccccc3C2C2C(=O)N(c3ccc4c(c3)OCCO4)C(=O)C2S1 (centres undefined),i
COc1cc(OC)cc(C(=O)NCC(O)c2ccoc2)c1 (centres undefined),i
Cc1nnc(C2CCCN(C(=O)c3cc(-c4ccco4)[nH]n3)C2)s1 (centres undefined),i
Cc1ccc(C)c(-n2c(C)cn3c4c(=O)n(CC(=O)C(C)(C)C)c(=O)n(C)c4nc23)c1,i
COc1ccccc1NC(=O)c1nnn(-c2ccc(Br)cc2)n1,i
CC1CCN(S(=O)(=O)c2nn(Cc3ccccn3)cc2C(=O)O)CC1,i
O=C(c1cnccn1)N(Cc1ccsc1)Cc1ccco1,i
CCOc1ccc(-c2noc(Cn3c(=O)n(CC4CCCO4)c(=O)c4ccccc43)n2)cc1 (centres undefined),i
O=C(NCCc1nc2ccccc2n1CCC1CCCCC1)c1ccco1,i
COc1ccccc1-n1ncc2c(C(C)C)nnc(SCC(=O)NCc3ccc4c(c3)OCO4)c21,i
Cc1ccc(C(=O)NC2CCN(c3ccc(-c4nc(C)no4)cn3)C2)cn1 (centres undefined),i
Cc1nc(-c2ccc(S(=O)(=O)Oc3ccccc3)s2)cs1,i
O=C(NCc1ccc(Br)cc1)c1ccc2c(=O)nc3c(-c4cccc(F)c4)n[nH]n3c2c1,i
O=C(NCC(F)(F)F)C(=O)NCC1(c2cccs2)CCCCC1,i
Cc1cccc(Cn2c(=O)c3c(nc4n(CCOCCO)c(C)c(C)n34)n(C)c2=O)c1,i
CCOc1ccc(-c2cc3c(=O)n(CC(=O)Nc4ccc(CC)cc4)ccn3n2)cc1,i
CCCc1cnc2c(c1SCc1ccc(C(=O)OC)o1)c(=O)n(C)c(=O)n2C,i
COc1cccc2sc(N(Cc3ccccn3)C(=O)c3cccc(S(=O)(=O)C(C)C)c3)nc12,i
Cn1nc(-c2ccc(F)cc2)cc1C(=O)N(CCc1ccccc1)Cc1ccccn1,i
CC(C)(C)NC(=O)[C@@H]1C[C@@H]2CCCC[C@@H]2CN1C[C@@H](O)[C@H](Cc1ccccc1)NC(=O)[C@H](CC(N)=O)NC(=O)c1ccc2ccccc2n1,i
Cc1ccc(S(=O)(=O)NCC2CCS(=O)(=O)C2)s1 (centres undefined),i
CCOC(=O)N1CCC(Oc2ncccc2Cl)CC1,i
COc1cc(C2NC(=S)NC(C)=C2C(=O)Nc2ccc(Br)cc2)cc(OC)c1OC (centres undefined),i
Cc1nnc(C2CCN(C(=O)CSC3CCCC3)CC2)s1,i
O=C(Nc1ccncc1[N+](=O)[O-])c1ccc([N+](=O)[O-])cc1,i
SMILES,GIRK2 activ
CC(=O)c1ccc(NC(=O)CCn2nc(C)cc2C)cc1,i
CC(C)c1ccc(OCC(=O)Nc2c3c(nn2CC(=O)NCc2ccc(F)cc2)CSC3)cc1,i
COc1ccc(Cl)cc1NC(=O)C(C)Cn1cncn1 (centres undefined),i
CCOc1ccccc1NC(=O)N1CCN(c2cc(OC(C)C)nc(C)n2)CC1,i
Cc1nn(C)cc1C(=O)N1CCN(C(=O)c2ccco2)CC1,i
COc1ccc(OC)c(NC(=O)CN2CCCN(Cc3ccccc3Cl)S2(=O)=O)c1,i
O=C(c1ccccc1C(F)(F)F)N1CCN(CCn2ccnc2-c2ccccc2)CC1,i
COc1ccc(OC)c(-c2csc(-c3nnn(-c4ccc(C)c(C)c4)c3N)n2)c1,i
COc1ncccc1C(=O)N1CCC(S(=O)(=O)Cc2ccco2)CC1,i
COc1cccc(NC(=O)CCn2cnc3c([nH]c4ccccc43)c2=O)c1,i
COC(=O)c1sccc1S(=O)(=O)Nc1cc(Cl)ccc1Cl,i
COc1ccc(NC(=O)NC(=O)C(F)(F)F)c(OC)c1,i
CC(=O)c1cccc(NC(=O)Cn2cnc3c(sc4nc(C)cc(C)c43)c2=O)c1,i
O=C(c1ccc2nc[nH]c2c1)N1CC(c2nc(-c3cccs3)no2)C1,i
CCOc1ccc(S(=O)(=O)NCC(C)(O)CCc2ccccc2)cc1F (centres undefined),i
COc1cc(OC)c(OC)cc1/C=C1\Oc2cc(OC(=O)c3c(OC)cccc3OC)ccc2C1=O,i
Cc1csc(C(=O)N2CCc3nc(NC(=O)c4ccoc4)sc3C2)c1,i
Cc1cnc(NC(=O)C2COCC(=O)N2Cc2cccs2)s1 (centres undefined),i
COc1ccc(-c2ccc(N3CCN(C(=O)NC4CCCCC4)CC3)nn2)cc1,i
COc1ccc(SCC2CCN(C(=O)C3CC=CCC3)CC2)cc1 (centres undefined),i
NC(=O)c1ccc(NC(=O)c2nc(-c3cn(Cc4ccc(F)cc4)nn3)no2)cc1,i
CCSc1nnc(NC(=O)c2cc(=O)c(OCc3ccc(F)cc3)cn2C)s1,i
COCC(C)(O)CNC(=O)C(=O)NCc1ccc2c(c1)OCO2 (centres undefined),i
COc1ccc(Br)c(C(=O)NCCn2nc(-c3ccccn3)n(C)c2=O)c1,i
COc1ccccc1N1CCN(c2ccc(S(=O)(=O)Cc3ccc(Cl)cc3)nn2)CC1,i
SMILES,GIRK2 activ
O=C(C1CC1)N1CC(c2nc3ccccc3[nH]2)C1,i
O=C(NCc1cc(-c2ccncc2)n(C2CCCC2)n1)C1(c2ccccc2)CCOCC1,i
COc1cc(C)c(C)cc1S(=O)(=O)NCC1CCN(C(=O)c2ccoc2)CC1,i
CCOc1cccc2cc(S(=O)(=O)N3CCCCCC3)c(=O)oc12,i
Cc1nc(N2C(=O)C(O)=C(C(=O)c3cc4ccccc4o3)C2c2ccccc2)sc1C (centres undefined),i
O=S(=O)(NCCNc1ccc(-n2cccc2)nn1)c1ccc2cccc3c2c1CC3,i
CCOc1ccc(NC(=O)c2ccc(CNS(=O)(=O)c3cccc(OC)c3)cc2)cc1,i
CCc1ccc(NC(=O)Cn2nc3c(Oc4ccc(C)cc4)nccn3c2=O)cc1,i
CCOc1ccc(-n2c(-c3ccccc3)cn3c4c(=O)n(C(C)C(C)=O)c(=O)n(C)c4nc23)cc1 (centres undefined),i
CCCn1c(-n2nc(C)c(C)c2C)nc2c1c(=O)n(CC(=O)OC)c(=O)n2C,i
Cc1nc2sc(C)c(C)n2c(=O)c1NC(=O)C(c1ccccc1)c1ccccc1,i
O=C(Cn1c(=O)[nH]c2ccsc2c1=O)Nc1ccc(F)cc1,i
O=C(NCc1cnn2ccccc12)c1ccc(Br)o1,i
COC(=O)c1ccc(CN2CCC(c3nnc(C(F)(F)F)o3)CC2)cc1,i
O=C(O)c1ccc(S(=O)(=O)NC2CC2)cc1,i
CC(C)Cn1c(=O)c2ccccc2n(Cc2nc(-c3ccc(Cl)cc3)no2)c1=O,i
Cc1cc(N2CC(c3nc4ccccc4[nH]3)CC2=O)ccc1Cl (centres undefined),i
Cc1ccc(C)c(S(=O)(=O)NCC(=O)NCc2ccco2)c1,i
CCC(C)NC(=O)CSc1nc2cc(OC)c(OC)cc2c2nc(-c3ccccc3)nn12 (centres undefined),i
CC(C)c1ccc(CC(=O)Nc2sc3c(c2-c2nc4ccccc4s2)CCCC3)cc1,i
COc1ccc(C)cc1NC(=O)CN1CCCN(Cc2ccccc2F)S1(=O)=O,i
CN1C(=O)NC2(CCN(S(=O)(=O)c3ccc(OC(F)(F)F)cc3)CC2)C1=O,i
CN(C)C(CNC(=O)/C=C/c1cccs1)c1cn(C)c2ccccc12 (centres undefined),i
Cc1ccc(OCCn2c(CCNC(=O)c3ccco3)nc3ccccc32)cc1,i
O=S(=O)(NCC#CCN1CCOCC1)c1ccccc1F,i
SMILES,GIRK2 activ
CCOc1ccc(-c2ccc(N3CCN(S(=O)(=O)c4ccc(CC)s4)CC3)nn2)cc1,i
Cc1ccc(C)n1CCCC(=O)NC1CCN(Cc2ccccc2)CC1,i
COc1ccc(-c2nnc(Cc3nc(-c4ccc(OC)c(OC)c4)no3)o2)cc1,i
Cn1c(-c2ccccn2)nn(CCNC(=O)c2ccc3nsnc3c2)c1=O,i
COc1cccc(NC(=O)COc2cc(=O)n3cccc(C)c3n2)c1,i
COCCOC(=O)c1c(C)oc2ccc(OC(=O)c3ccc(OC)c(OC)c3)cc12,i
CCCCS(=O)(=O)N1CCN(c2nc(N3CCOCC3)nc(-n3ccnc3)n2)CC1,i
CC(O)(CCc1ccccc1)CNS(=O)(=O)c1ccc(OC(F)(F)F)cc1 (centres undefined),i
Cc1cc(C(O)CCNC(=O)CN2C(=O)CCC2=O)c(C)o1 (centres undefined),i
Cc1nc2ccccc2n1CC1CCN(C(=O)C(C)Oc2ccccc2)CC1 (centres undefined),i
COc1ccc(CCNS(=O)(=O)CCNC(=O)c2ccc(OC)cc2)cc1,i
Cc1ccc(C2C(C(=O)c3sc(-c4ccccc4)nc3C)=C(O)C(=O)N2CCN(C)C)o1 (centres undefined),i
COC(=O)C1=C(CS(=O)(=O)c2cc(OC)ccc2OC)NC(=O)NC1c1ccc(O)c(OC)c1 (centres undefined),i
CC(C)(C)n1ncc2c(=O)n(CC(=O)N3CCCCCC3)cnc21,i
C=CCn1c(=O)c2c(nc3n(CCCN4CCOCC4)c(C)cn23)n(C)c1=O,i
CS(=O)(=O)N1CCC(C(=O)N2CCC(CSCc3ccco3)CC2)CC1,i
COc1cccc2sc(OC3CN(C(=O)NCc4cccs4)C3)nc12,i
COc1cccc2c1C(=O)c1c(O)c3c(c(O)c1C2=O)C[C@@](O)(C(C)=O)C[C@@H]3OC1CC(N)C(O)C(C)O1 (some centres undefined),i
CC1CCN(S(=O)(=O)c2cccn(CC(=O)Nc3ccc(Cl)cc3)c2=O)CC1,i
CC(C(=O)N1CCN(c2ccc(C(F)(F)F)cn2)CC1)n1nc(-c2ccc(F)cc2)ccc1=O (centres undefined),i
O=C1NC2C(O)C(O)[C@@H](O)C(CO)N2C1=O (some centres undefined),i
Cc1nc(-c2ccco2)sc1CNS(=O)(=O)c1cccs1,i
CCCNC(=O)C1CCC(Cn2c(=O)c3sccc3n(Cc3c(F)cccc3Cl)c2=O)CC1 (centres undefined),i
N#Cc1nc(-c2ccc(COc3ccccc3)o2)oc1NCCCN1CCOCC1,i
CCOCCCN1COc2ccc3c(c2C1)O/C(=C\c1cccc(OC)c1OC)C3=O,i
SMILES,GIRK2 activ
CC(C)OCCCNc1nc2c(c(=O)[nH]c(=O)n2C)n1CCO,i
CCc1ccc(NC(=O)CSc2nc3c(sc(=S)n3-c3ccccc3)c(=O)[nH]2)cc1,i
O=C(Cn1cnc2ccccc21)N1CCC(Oc2ccccn2)CC1,i
O=C(Nc1ccc2c(c1)OCO2)Nc1nnc(-c2cc(Cl)sc2Cl)o1,i
Cn1cc(C(=O)N2CCCCCC2)cc(NC(=O)C(=O)c2c[nH]c3ccccc23)c1=O,i
O=S(=O)(c1cccnc1)N1CC(Oc2nc3ccccc3s2)C1,i
NC(=O)C1CCN(C(=O)c2cn(CC(O)c3ccccc3)nn2)CC1 (centres undefined),i
COc1ccc2c(c1)c(CC(=O)NCc1ccc(I)cc1)c(C)n2C(=O)c1ccc(Cl)cc1,i
O=C(NCc1cccc2ccccc12)NCC1(CO)CC1,i
COc1ccc(S(=O)(=O)N(C)CCCC(=O)O)cc1N(C)S(=O)(=O)c1ccc(C)cc1,i
Cc1cn2c3c(=O)n(C/C=C/c4ccccc4)c(=O)n(C)c3nc2n1-c1ccc(S(N)(=O)=O)cc1,i
Cc1cccc(-c2c(NC(=O)c3ccco3)n(C)c3ccccc3c2=O)c1,i
COc1ccc(NC(=O)Cn2ccn(-c3ccc(Cl)cc3)c2=O)cc1,i
CCOC(=O)c1ccc(NC(=O)Cn2nc3cc(CC)nc(-c4cccnc4)n3c2=O)cc1,i
CCCn1c(=O)c2ccccc2n2c(SCC(=O)NCc3ccccc3)nnc12,i
Cc1cc(C)nc(Nc2nc(CC(=O)N3CCN(C(=O)c4ccco4)CC3)cs2)n1,i
COc1ccc(NC(=O)CN2CCN(S(=O)(=O)c3ccc(F)cc3)CC2)cc1,i
COc1cccc(S(=O)(=O)NCc2ccc(C(=O)N3CCCCC3)cc2)c1,i
Cc1nnsc1C(=O)NCc1cc(-c2ccccn2)n(C)n1,i
O=C(N1CCN(c2ccc(-c3noc(C(F)(F)F)n3)cn2)CC1)C1(c2ccccc2)CCOCC1,i
COc1ccc(CNc2nc3ccccc3nc2NS(=O)(=O)c2cccs2)cc1,i
CCOc1ccc(NC(=O)c2ccc(-n3nncc3C)cc2)cc1,i
CC(NC(=O)OC(C)(C)C)C(=O)NCC1CCC(c2nc3ccccc3[nH]2)CC1 (centres undefined),i

# Reprinted at random: five entries already listed.
SMILES,GIRK2 activ
CC(C)OCCCNc1nc2c(c(=O)[nH]c(=O)n2C)n1CCO,i
Cc1cc(C)nc(Nc2nc(CC(=O)N3CCN(C(=O)c4ccco4)CC3)cs2)n1,i
COc1cccc(S(=O)(=O)NCc2ccc(C(=O)N3CCCCC3)cc2)c1,i
COc1ccc2c(c1)c(CC(=O)NCc1ccc(I)cc1)c(C)n2C(=O)c1ccc(Cl)cc1,i
O=C(Cn1cnc2ccccc21)N1CCC(Oc2ccccn2)CC1,i

# A stretch from the list above:
SMILES,GIRK2 activ
CC(C)OCCCNc1nc2c(c(=O)[nH]c(=O)n2C)n1CCO,i
CCc1ccc(NC(=O)CSc2nc3c(sc(=S)n3-c3ccccc3)c(=O)[nH]2)cc1,i
O=C(Cn1cnc2ccccc21)N1CCC(Oc2ccccn2)CC1,i
O=C(Nc1ccc2c(c1)OCO2)Nc1nnc(-c2cc(Cl)sc2Cl)o1,i
Cn1cc(C(=O)N2CCCCCC2)cc(NC(=O)C(=O)c2c[nH]c3ccccc23)c1=O,i
O=S(=O)(c1cccnc1)N1CC(Oc2nc3ccccc3s2)C1,i
